Screening results deposited in PubChem by several laboratories.
CSC inhib: cancer stem cell inhibition. cancer stem cell-like cells viability, luminescence. 300,000 compounds, 1.1% hits. AID 2717. inhibition, % at 7.5 µM;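 active = mean at 75% or more and at least half the replicates too; inconclusive = mean and replicates disagree; tested in HMLE shEcad cells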;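 note: 0% = median of negative and 100% = median of positive control wells; the first replicate is given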
UUG fidelity: modulators of start codon recognition fidelity in yeast | S. cerevisiae UUG-firefly luciferase reporter, luminescence/redox ratio | 350,000 compounds, 0.13% hits | activity score, % at 18.7 µM | AID 602363;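 active = replicate mean at a twofold rise or more, about +100% in these data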;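 note: firefly luciferase made from a UUG start codon reports start codon fidelity; reporter light over untreated wells divided by growth signal over untreated wells; some hits fall short of that in this replicate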
PABP polyA inh: blocks human PABP binding to poly(A) RNA; 290,000 compounds, 1% hits; AID 2014; P11940; fluorescence polarization; inhibition, % at 35 µM;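 active = 50% or more with normal probe brightness, or confirmed in later tests; inconclusive = above 50% with abnormal brightness, or retests that disagree; inactive = below 50% or failed in later tests; about a fifth of its hits are not listed in these tables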;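 note: calls also rest on retests at 20 µM and on dose response follow-up; controls were probe without protein and protein plus probe with vehicle; some compounds called inactive have numbers as strong as hits; many hits fall short of the cut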
Target sequence (P11940 whole entry, looked up): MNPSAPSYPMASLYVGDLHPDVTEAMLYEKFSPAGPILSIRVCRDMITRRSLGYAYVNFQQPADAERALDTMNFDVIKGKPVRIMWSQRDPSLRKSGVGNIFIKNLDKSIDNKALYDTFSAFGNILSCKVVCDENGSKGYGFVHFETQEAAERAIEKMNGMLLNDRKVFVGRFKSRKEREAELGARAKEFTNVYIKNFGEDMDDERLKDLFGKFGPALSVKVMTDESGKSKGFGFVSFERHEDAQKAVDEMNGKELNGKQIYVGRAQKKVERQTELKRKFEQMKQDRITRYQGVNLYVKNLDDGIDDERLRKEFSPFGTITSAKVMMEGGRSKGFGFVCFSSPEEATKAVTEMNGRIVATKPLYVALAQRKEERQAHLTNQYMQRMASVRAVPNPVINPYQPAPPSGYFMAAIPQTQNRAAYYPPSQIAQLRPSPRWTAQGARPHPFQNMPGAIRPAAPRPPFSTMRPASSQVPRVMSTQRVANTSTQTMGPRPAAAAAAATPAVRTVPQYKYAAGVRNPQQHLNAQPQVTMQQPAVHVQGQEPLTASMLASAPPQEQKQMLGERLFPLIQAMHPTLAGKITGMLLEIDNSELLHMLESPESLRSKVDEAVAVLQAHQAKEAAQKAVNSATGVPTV
Rce1 inhib: blocks yeast Ras-converting enzyme; Q03530; yeast membranes, quenched prenylated peptide cleavage fluorescence; calls only; 290,000 compounds, 0.27% hits; AID 2563;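 active = fall in fluorescence gain of 50% or more versus controls, with final raw signal at or below 3038400; inconclusive = same 50% fall but final raw signal above 3038400; inactive = fall in fluorescence gain under 50%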;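 note: plate controls were neutral control wells for no effect and wells lacking membranes for full effect; tested at 10 µM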
eIF4H inh: inhibitors of RNA binding by human eIF4H; Q15056; eIF4H fluorescence polarization binding assay; inhibition, % at 35 µM; 290,000 compounds, 0.94% hits; AID 2012;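 active = 50% or more with normal probe brightness, or confirmed in later tests; inconclusive = above 50% with abnormal brightness, or retests that disagree; inactive = below 50% or failed in later tests; about a fifth of its hits are not listed in these tables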;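 note: calls also rest on retests at 20 µM and on dose response follow-up; 0% = protein and probe with vehicle and 100% = probe without protein; strong numbers were not always called active; many hits fall short of the cut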
MT1-MMP act inh: inhibitors of human MT1-MMP activation; P50281; HT1080 RFP-PRO-GFP cells, GFP/RFP ratio fluorescence, overnight; percent of plate control window, DMSO zero; GFP/RFP ratio change, % at 20 µM; 360,000 compounds, 0.061% hits; AID 651647;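 active = GFP/RFP ratio change of at least 30% with cell ATP level not reduced by more than half and red fluorescence within 50% of control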; note: strong numbers were not always called active
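Assay system: HT1080 RFP-PRO-GFP cells. Benchmarks: DMSO vehicle wells and RFP-L50D-GFP reporter cell wells. Times: overnight cell settling, then overnight compound exposure, 37 °C, 5% CO2. Compound: 20 µM single dose, 1% DMSO. Read-out basis: GFP/RFP fluorescence ratio.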
HIV Env fusion: inhibitors of HIV Env-mediated cell fusion. HeLa-JRFL Env/CEM21 cell fusion, luciferase. inhibition, % at 12.3 µM. 360,000 compounds, 1.1% hits. AID 651610;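 active = mean replicate inhibition score of at least 50 and every replicate individually at or above 50; inconclusive = only one of the two criteria met; inactive = mean below 50 and not all replicates reaching 50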;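 note: 0% = plate neutral controls and 100% = maraviroc near 300 nM; one replicate is shown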
eIF4H inh retest: further read-out of eIF4H inh, marked with its call; inhibition, %; compound at 20 µM; confirmation average;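 mean of two retest wells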
PABP polyA inh retest: recorded beside PABP polyA inh, whose call it bears; inhibition, %; compound at 20 µM; confirmation repeats;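 mean of two retest wells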
MT1-MMP act inh RFP: recorded beside MT1-MMP act inh, whose call it bears; RFP signal change, %; measured here: RFP expression control read;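 0 = vehicle wells; hits needed this value within 50% of zero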
* = called active by the depositor; i = inactive; ? = inconclusive; . = no result given; & = joins results of further samples. The list is partial; rates above refer to the full screens.

SMILES	CSC inhib	UUG fidelity	PABP polyA inh	Rce1 inhib	eIF4H inh	MT1-MMP act inh	MT1-MMP act inh RFP	HIV Env fusion	others
Cc1cccc(NC(=O)C2CCN(S(=O)(=O)c3c(C)[nH]c(=O)[nH]c3=O)CC2)c1	-9	.	3	i	-7	-1	1	21
CC(C)OC(=O)N(C)c1ccc(C(O)(C(F)(F)F)C(F)(F)F)cc1	.	.	4	i	-3	26	-2	8
COc1cc(-c2[nH]ncc2CN2CCSCC2)cc(OC)c1OC	-19	-16	0	i	-12	4	2	4
O=[N+]([O-])c1ccc(OCc2cnc(Cl)s2)c([N+](=O)[O-])c1	9	.	1	i	-4	7	3	44
Cc1noc(C)c1NC(=O)N(C)C[C@H]1Oc2c(NS(=O)(=O)c3cn(C)cn3)cccc2C(=O)N([C@H](C)CO)C[C@@H]1C	-13	19&-2	.	.	.	1	9	-21
Cc1ccc(C(C)C)c(OCCNS(C)(=O)=O)c1	17	-5	3	i	8	-2	4	.
CN1C2C=C(N(CCc3c[nH]c4ccccc34)C(=O)c3ccc(Cl)cc3)CC1CC2 (stereo unspecified)	14	16	-8	i	-9	-6	-3	-42
CCOC(=O)NCc1ccc(Cl)c(Cl)c1	-10	-19	6	i	-5	1	5	-96
C=CCSc1nnc(NC(=O)c2ccc3c(c2)OCCO3)s1	.	-19	.	.	.	-3	-12	-66
C/C(CCN1CCc2nc(-c3ccccc3)c(-c3ccccc3)cc2C1)=N\OC[C@@H](C)[C@H](OCc1ccccc1)C(C)C	3	.	5	i	42	.	.	.
O=S(=O)(c1ccccc1)N1CCN(C(=S)NCCCN2CCOCC2)CC1	-11	-11	-12	i	-4	2	7	2
CC(=O)Oc1ccc(/C=N\NC(=O)c2cc3c(ccc4ccccc43)o2)cc1	.	-10	-30	i	12	.	.	-22
COc1ccc(-c2cnc(NCc3cc4c(cc3[N+](=O)[O-])OCO4)n2C)cc1	24	.	-3	i	50	11	7	-6	eIF4H inh retest=-2;PABP polyA inh retest=5
Cc1nc(-c2ccccc2)[nH]c(=O)c1Oc1ccc(Cl)cc1Cl	9	-14	10	i	1	-5	-21	3
CCN(CC)C(=O)c1sc(NC(=O)c2cccs2)c(C#N)c1C	-10	.	4	i	3	0	-1	-3
CCOC(=O)Nc1ccc(S(=O)(=O)N(C)C(C)C)cc1	-19	-7	-1	i	-10	5	1	-48
CCCN(CC(=O)Nc1ccccc1C)C(=O)c1ccc(C(=O)c2ccccc2)cc1	-9	2	.	i	.	2	0	26
CC(OC(=O)C1CCCCC1)C(=O)Nc1ccc(S(N)(=O)=O)cc1 (stereo unspecified)	-16	-14	.	.	.	4	3	.
COc1ccc(/C=N/Nc2ccccn2)cc1OC	14	-16	-11	i	-6	1	-1	-14
C=CCn1c(C)nnc1SCC(=O)NC1CCCCC1	0	-16	5	i	3	0	2	-10
Cc1ccc(SCC(=O)OCC(=O)NCc2cccs2)cc1C	-8	.	.	i	.	2	3	0
Cc1nn2c(N3CCN(CCO)CC3)c3c(nc2c1-c1ccccc1)CCCC3	27	.	-8	i	64	-5	-10	25	eIF4H inh retest=20;PABP polyA inh retest=28
Cn1cnnc1SCc1ccc(C#N)cc1	-5	-8	6	i	-8	-1	-1	.
Cc1ccc(Nc2nc(N)c([N+](=O)[O-])c(N3CCCC(C)C3)n2)cc1C (stereo unspecified)	40	-14	-20	i	-15	-2	-13	.
Cn1c(=O)c2c(nc(Br)n2C)n(C)c1=O	0	-11	1	i	6	-2	0	.
CCOC(=O)c1c(NC(=O)c2ccc(S(=O)(=O)N(C)CC3CCCO3)cc2)sc2c1CC(C)(C)NC2(C)C (stereo unspecified)	63	1	-13	i	-4	-4	-5	.
COc1ccc(-c2nc(N)n(C(=O)c3ccccc3)n2)cc1	.	-1	-7	i	7	2	4	-20
O=C(Nc1ccc(Cl)c(Cl)c1)Nc1ccc(N2CCCC2)c(S(=O)(=O)Nc2ccccc2Cl)c1	60	.	-6	i	2	-32	-38	81*
C#CCOCCOCCOCCNc1nc(N2CCN(C(=O)[C@H](CCC(=O)O)n3cc(C(N)Cc4ccc(O)cc4)nn3)CC2)nc(N2CCN(C(=O)[C@H](Cc3ccc(O)cc3)n3cc(C(N)CC(C)C)nn3)CC2)n1 (stereo partly specified)	.	.	-1	i	7	.	.	.
CCOc1ccc(NC(=O)CN2CCCC2c2cccs2)cc1S(=O)(=O)N1CCCC1 (stereo unspecified)	-6	3	.	.	.	-1	-4	-9
S=c1[nH]nc(-c2cc(-c3ccccc3)n[nH]2)n1/N=C/c1cccs1	-2	.	1	i	2	-1	-6	-3
CC(C)(C)n1nc(Cc2cccc3ccccc23)c2c(N)ncnc21	39	19	.	i	.	-4	-20	82*
COc1cc(OC)cc(C(=O)Nc2nc3ccc(S(C)(=O)=O)cc3s2)c1	36	-5	-7	i	11	2	-3	-71
CCn1c(SCC(=O)NCCOC)nc2sc3c(c2c1=O)CCCC3	-10	-6	11	i	-3	-1	6	.
CCCc1cc(=O)oc2c(CNc3ccc(OCC)cc3)c(O)ccc12	34	-20	39*	i	76	1	3	12	eIF4H inh retest=37;PABP polyA inh retest=51*
CC(Oc1ccc(Cl)cc1Cl)c1nc(-c2ccccn2)no1 (stereo unspecified)	55	-7	-10	i	1	1	-4	.
Cc1ccc(CCNC(=O)C2CCCN(c3ncnc4c3nc3n4CCCCC3)C2)cc1 (stereo unspecified)	.	-14	-2	i	-15	-3	-4	-9
CC(C)CCNC(=O)C1CC(c2ccccc2C(F)(F)F)=NO1 (stereo unspecified)	-1	-9	5	i	13	3	-3	-18
Cc1cccc(NC(=O)COc2ccc(/C=N\n3cnnc3)cc2)c1	1	.	1	i	2	3	4	18
CCOC(=O)Cc1csc(N/N=C/c2ccc(Cl)cc2)n1	10	.	-13	i	5	-1	1	16
CC1CC(C)CN(CCCNC(=O)CCC(=O)N2CCOc3ccccc32)C1 (stereo unspecified)	15	3	8	i	-12	1	6	0
CCc1nc2ccc(C(=O)Nc3cccc(OCC(=O)N(C)C)c3)cn2c1N(CC)CCN(C)C	.	-15	.	.	.	-2	7	7
O=C(CNC(=O)c1sc2ccccc2c1Cl)OCc1ccccc1	-5	-7	-1	i	2	0	8	-3
Cn1nc(-c2ccc(C(=O)Nc3cccnc3)cc2)c2ccccc2c1=O	-15	.	-18	i	-3	4	5	3
CN(C)c1ccc(-c2cccc(C3CC=CC4C3C(=O)N(Cc3ccccc3)C4c3ccc4ccccc4c3)c2)cc1 (stereo unspecified)	-6	-34	-10	i	-13	3	-9	8
CCOC(=O)C1=C(Nc2ccccc2)CC(C)(O)C(C(=O)OCC)C1c1ccc(Cl)cc1 (stereo unspecified)	41	-10&-8	-1	.	-7	-2&4	-6&7	-15&-6
Cc1ccccc1OCC(O)CN1CCN(c2ccc(Cl)cc2)CC1 (stereo unspecified)	12	-1	2	i	-9	0	1	8
COCCCNC(=O)C1CC(=O)OC1c1ccc(OC)c(OC)c1 (stereo unspecified)	7	.	7	i	10	0	-1	-80
COc1ccc(N2CCN(CCCNC(=O)c3cc4sccc4n3C)CC2)cc1	1	-6	-3	i	-1	5	-1	.
Cc1nc(N)c(C#N)c(-c2cccnc2)c1C	-16	-2	-14	i	-10	-8	-4	?
(more compounds)
SMILES	CSC inhib	UUG fidelity	PABP polyA inh	Rce1 inhib	eIF4H inh	MT1-MMP act inh	MT1-MMP act inh RFP	HIV Env fusion	others
CC(=O)[C@@]12O[C@@H]1C[C@H]1[C@@H]3CC[C@H]4C[C@@H](O)CC[C@]4(C)[C@H]3CC[C@@]12C	0	-3	-2	i	2	4	0	-8
CCOC(=O)c1c(C)c(C(=O)NCC2CCCO2)c(C)n1CC (stereo unspecified)	-5	.	3	i	-3	3	4	.
O=C(Nc1cccc2c1CCCC2)C1CCN(C(=O)NC2CCCCC2)CC1	-11	2	4	i	20	5	7	0
O=C(c1ccccc1Cl)N1CCC(N2CCC(C(=O)N3CCCC3)CC2)CC1	0	-4	19	i	-9	-3	2	-14
O=C1CC(c2ccco2)CC(O)=C1C=NCCN1CCN(C2CC(=O)N(c3ccccc3)C2=O)CC1 (stereo unspecified)	.	-4	-7	i	32	4	8	.
C=CCn1c(SCC(=O)Nc2cccnc2Cl)nnc1-c1ccc(C(C)(C)C)cc1	-2	.	3	i	-8	2	-2	23
CC(Nc1nc(-c2ccc3c(c2)NC(=O)CO3)cs1)c1ccccc1 (stereo unspecified)	-2	.	28	i	5	-1	-11	9
O=C1CS(=O)(=O)N(Cc2ccccc2F)c2ccc(Br)cc21	.	-1	.	.	.	-1	0	-7
N#C/C(=N\Nc1ccc(F)cc1)C(=N)N1CCCCC1	6	-19	-10	i	-12	0	-2	.
CN1CCN(S(=O)(=O)c2ccc(Br)s2)CC1	-10	-10	-3	i	-6	4	2	-16
Cc1ccc(N(CC(=O)NC2CCCCC2)C(=O)CCCC(=O)Nc2ccccn2)c(C)c1	4	-4	11	i	3	-2	2	2
CCc1ccccc1Cn1c(=O)oc2cccnc21	-12	.	1	i	3	3	0	-1
COc1ccccc1/C=C1\CCC(C2CCCC2)C1=O (stereo unspecified)	7	.	-3	i	5	5	8	3
CCOc1ccc2[nH]c3c(NCCC(C)C)ncnc3c2c1	50	-13	1	i	10	7	-9	-2
Cc1cc(NC(=O)CSc2nc3c(c(=O)n2CCc2ccccc2)SC(C)C3)no1 (stereo unspecified)	-8	-16	-23	i	-8	-5	1	-5
COc1ccc(NC(=O)CSc2nnc(CNC(=O)c3ccco3)o2)c(OC)c1	8	-16	-5	i	-5	-6	3	-3
c1csc(-c2nc3ccccn3c2NC2CCCCC2)c1	-1	.	0	i	31	1	3	4
O=C(NCc1ccccc1)/C(=C\c1ccc(F)cc1)NC(=O)c1ccco1	.	-11	.	.	.	-2	0	2
O=C(NCc1ccco1)C1(c2ccc(Cl)cc2)CCCC1	2	-10	-5	.	4	1	-1	6
Cn1c(=O)c2c(nc(SCC(=O)O)n2Cc2cc3c(cc2Cl)OCO3)n(C)c1=O	-10	-6	-2	i	-4	1	2	-37
N#Cc1ccccc1OCC(=O)NNC(=O)CCC1CCCC1	-12	-17	.	.	.	1	7	-4
O=C(CNC(=O)c1ccccc1)c1ccccc1	-6	-52	.	i	.	4	9	-33
O=C(CSc1nc2ccccc2c(=O)[nH]1)Nc1ccc(C(=O)O)cc1	.	-8	-1	i	3	1	0	17
CN1CCN(C(=O)/C(=C/c2cn(S(=O)(=O)N(C)C)c3ccccc23)NC(=O)c2ccccc2F)CC1	-15	-3	12	i	-3	-2	0	4
O=S(=O)(O)c1cccc2cccc(Nc3ccccc3)c12	1	-3	.	i	.	2	5	9
Cc1cccc(C(=O)N2CCN(c3ncnc4c3cnn4-c3ccccc3)CC2)c1	1	-13	1	i	-1	4	-12	.
Cc1cc(NC(=O)CSCC(=O)OCC(=O)c2ccc(Br)cc2)no1	.	-18	.	.	.	1	6	-20
Cc1noc(C)c1C(=O)N1CCCC(Nc2ccc(C(C)C)cc2)C1 (stereo unspecified)	-15	-15	0	i	-1	-5	-6	-9
O=C(Cn1ncc2c3ccccc3n(Cc3ccccc3F)c2c1=O)NCCN1CCOCC1	-3	-8	-1	i	7	-2	-3	2
